Screens as filed in PubChem BioAssay.
HIV Env fusion: blocks HIV Env-driven cell-cell fusion | inhibition, % at 12.3 µM | 1.1% of 360,000 active | AID 651610 | HeLa-JRFL Env/CEM21 cell fusion, luciferase;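 active = mean replicate inhibition score of at least 50 and every replicate individually at or above 50; inconclusive = only one of the two criteria met; inactive = mean below 50 and not all replicates reaching 50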;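 also: 0% = plate neutral controls and 100% = maraviroc near 300 nM; one replicate is shown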
Rce1 inhib: blocks yeast Ras-converting enzyme | calls only | Q03530 | yeast membranes, quenched prenylated peptide cleavage fluorescence | AID 2563 | 0.27% of 290,000 active;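 active = fall in fluorescence gain of 50% or more versus controls, with final raw signal at or below 3038400; inconclusive = same 50% fall but final raw signal above 3038400; inactive = fall in fluorescence gain under 50%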;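 also: plate controls were neutral control wells for no effect and wells lacking membranes for full effect; tested at 10 µM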
eIF4H inh: inhibitors of RNA binding by human eIF4H; inhibition, % at 35 µM; 0.94% of 290,000 active; AID 2012; eIF4H fluorescence polarization binding assay; Q15056;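 active = 50% or more with normal probe brightness, or confirmed in later tests; inconclusive = above 50% with abnormal brightness, or retests that disagree; inactive = below 50% or failed in later tests; about a fifth of its hits are not listed in these tables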;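 also: calls also rest on retests at 20 µM and on dose response follow-up; 0% = protein and probe with vehicle and 100% = probe without protein; strong numbers were not always called active; many hits fall short of the cut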
Yeast UUG start: modulators of start codon recognition fidelity in yeast; S. cerevisiae UUG-firefly luciferase reporter, luminescence/redox ratio; activity score, % at 18.7 µM; 0.13% of 350,000 active;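 active = replicate mean at a twofold rise or more, about +100% in these data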;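 also: firefly luciferase made from a UUG start codon reports start codon fidelity; reporter light over untreated wells divided by growth signal over untreated wells; some hits fall short of that in this replicate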
CSC inhib: cancer stem cell inhibition; 1.1% of 300,000 active; cancer stem cell-like cells viability, luminescence; inhibition, % at 7.5 µM;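 active = mean at 75% or more and at least half the replicates too; inconclusive = mean and replicates disagree; tested in HMLE shEcad cells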;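 also: 0% = median of negative and 100% = median of positive control wells; the first replicate is given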
MT1-MMP act inh: MT1-MMP (human) activation inhibition; HT1080 RFP-PRO-GFP cells, GFP/RFP ratio fluorescence, overnight; percent of plate control window, DMSO zero; P50281; 0.061% of 360,000 active; GFP/RFP ratio change, % at 20 µM;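 active = GFP/RFP ratio change of at least 30% with cell ATP level not reduced by more than half and red fluorescence within 50% of control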; also: strong numbers were not always called active
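Compound: 20 µM single dose, 1% DMSO / System: HT1080 RFP-PRO-GFP cells / Controls: DMSO and RFP-L50D-GFP cell wells / Read-out basis: GFP/RFP fluorescence ratio / Schedule: overnight compound exposure at 37 °C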
PABP polyA inh: PABP-poly(A) binding inhibition. PABP-poly(A) RNA binding, fluorescence polarization. P11940. 1% of 290,000 active. AID 2014. inhibition, % at 35 µM;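 active = 50% or more with normal probe brightness, or confirmed in later tests; inconclusive = above 50% with abnormal brightness, or retests that disagree; inactive = below 50% or failed in later tests; about a fifth of its hits are not listed in these tables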;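 also: calls also rest on retests at 20 µM and on dose response follow-up; controls were probe without protein and protein plus probe with vehicle; some compounds called inactive have numbers as strong as hits; many hits fall short of the cut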
Target sequence (P11940 whole entry, looked up): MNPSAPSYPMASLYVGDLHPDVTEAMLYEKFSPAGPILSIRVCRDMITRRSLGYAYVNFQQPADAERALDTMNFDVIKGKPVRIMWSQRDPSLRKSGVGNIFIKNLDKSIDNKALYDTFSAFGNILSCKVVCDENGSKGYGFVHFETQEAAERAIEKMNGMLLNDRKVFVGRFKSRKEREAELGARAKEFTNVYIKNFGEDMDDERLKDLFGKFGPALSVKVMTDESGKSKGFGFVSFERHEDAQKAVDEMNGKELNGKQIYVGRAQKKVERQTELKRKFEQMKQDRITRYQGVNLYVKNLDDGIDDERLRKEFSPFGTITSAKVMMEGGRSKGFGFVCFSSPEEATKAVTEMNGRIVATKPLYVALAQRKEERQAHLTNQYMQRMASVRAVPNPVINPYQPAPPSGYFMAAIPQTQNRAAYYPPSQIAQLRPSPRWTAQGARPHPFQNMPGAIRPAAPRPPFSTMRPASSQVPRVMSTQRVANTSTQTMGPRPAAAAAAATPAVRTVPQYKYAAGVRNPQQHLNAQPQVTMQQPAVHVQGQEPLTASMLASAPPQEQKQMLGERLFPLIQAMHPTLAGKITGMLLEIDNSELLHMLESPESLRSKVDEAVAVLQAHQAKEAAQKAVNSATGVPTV
eIF4H inh retest: second read-out of eIF4H inh, no call of its own (marks repeat the call); inhibition, %; compound at 20 µM; confirmation average;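 mean of two retest wells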
PABP polyA inh retest: second read-out of PABP polyA inh, no call of its own (marks repeat the call); inhibition, %; compound at 20 µM; confirmation repeats;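 mean of two retest wells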
MT1-MMP act inh RFP: also measured in MT1-MMP act inh; calls as there; RFP signal change, %; measured here: RFP expression control read;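 0 = vehicle wells; hits needed this value within 50% of zero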
Starred values were filed as active, the others as inactive; i = inactive; ? = inconclusive; . = no result given; + = active, no number.

SMILES | HIV Env fusion | Rce1 inhib | eIF4H inh | Yeast UUG start | CSC inhib | MT1-MMP act inh | MT1-MMP act inh RFP | PABP polyA inh | others
Cc1cc(C)nc(NC(=NCCc2c[nH]c3ccccc23)NC(=O)Nc2ccc(Cl)c(Cl)c2)n1 | -5 | i | 3 | . | 8 | -6 | -9 | -9
CC1CN(C2CCCCC2)c2nc3c(c(=O)n(C)c(=O)n3C)n2C1 (stereo unspecified) | -20 | i | -11 | -2 | -14 | -2 | 0 | -2
O=c1[nH]c(N2CCCCCC2)nc2ncn(Cc3ccccc3)c12 | -4 | i | -8 | -23 | 1 | -1 | -3 | 5
CC(Oc1ccccc1)C(=O)Nc1nc(-c2ccccn2)cs1 (stereo unspecified) | 36 | . | . | -29 | . | 5 | 1 | .
NS(=O)(=O)c1ccc(NCc2c(F)cccc2Cl)cc1 | -3 | i | -10 | . | . | -6 | -9 | -10
COCCNc1nc2nonc2nc1N1CCCC1c1nccs1 (stereo unspecified) | -6 | i | 64 | -11 | 9 | -4 | 4 | 58 | eIF4H inh retest=6;PABP polyA inh retest=13
Cc1cc(N2C(=O)C3C4C=CC(C4)C3C2=O)ccc1Br (stereo unspecified) | -153 | i | 2 | . | 11 | 0 | 3 | 11
CCCc1cc(=O)oc2c(C)c(OC(C)C(=O)NCc3ccccn3)ccc12 (stereo unspecified) | 12 | i | -8 | -7 | -5 | 0 | 1 | -8
N#CCCN(C(=S)Nc1ccc(S(=O)(=O)N2CCOCC2)cc1)c1ccccc1F | -7 | . | . | -18 | . | 3 | 1 | .
O=C(Cn1nnc(-c2ccccc2-n2cnnn2)n1)NCc1ccccc1 | . | i | -10 | -14 | -11 | 1 | 1 | 7
O=c1[nH]nc(-c2cc(-c3ccccc3)nc3ccccc23)o1 | -18 | . | . | -12 | . | -2 | -1 | .
Cc1ccc2nc(SCC(=O)Nc3cc(C(F)(F)F)ccc3N3CCOCC3)[nH]c2c1 | . | i | 4 | -15 | 62 | 10 | -12 | -5
Cc1cc(Cl)ccc1OCCCC(=O)N1CCN(C(=O)c2ccco2)CC1 | 23 | i | -11 | -3 | -15 | 2 | -5 | -9
Cc1cc2oc(=O)cc(CN3CCC(C)CC3)c2cc1Cl | -18 | i | 3 | -3 | 7 | -3 | -4 | 12
COCCNC(=O)c1snc2ccc(Cl)cc12 | . | i | 10 | -15 | -1 | -7 | 0 | 12
CCOC(=O)c1c(S(=O)(=O)NCC(=O)Nc2ccc(F)cc2F)c(C)n(C)c1C | 2 | i | 1 | -22 | -4 | 0 | 2 | 4
CC1(C(=O)NCc2cccc(Cl)c2)Cc2c(-c3ccccc3)ccnc2O1 (stereo unspecified) | 6 | . | . | 3 | . | -2 | -5 | .
Cc1occc1-c1nnc(SCC(=O)NC2CCCCC2)o1 | 9 | . | . | -13 | . | -1 | 2 | .
COc1ccc(S(=O)(=O)N(C(C)=O)c2ccc(OC(C)=O)c3ccccc23)cc1[N+](=O)[O-] | 6 | i | -4 | -1 | 22 | 1 | -9 | 0
CN(Cc1c(C(=O)N/N=C/c2ccccc2O)nnn1-c1nonc1N)C1CCCCC1 | -2 | . | . | -7 | . | 6 | -1 | .
O=C1Nc2ccccc2C1c1ncc(C(F)(F)F)cc1Cl (stereo unspecified) | 21 | i | -6 | -3 | . | 0 | 1 | -2
O=C(COc1ccc(S(=O)(=O)N2CCCCC2)cc1Cl)N1CCCC1 | -1 | i | -8 | 1 | -5 | -2 | -3 | -1
Cc1ccc(NC(=O)Cn2cccc2C2=NC(c3ccccc3)CO2)cc1C (stereo unspecified) | 36 | i | 7 | -4 | 1 | 2 | 1 | 6
Cc1ccc(CCNC(=O)C2CCN(S(=O)(=O)N3CCC4(CC3)OCCO4)CC2)cc1 | . | . | 4 | -6 | -2 | 6 | -2 | -4
CCCc1cc(=O)oc2c(C)c(OS(C)(=O)=O)ccc12 | . | i | . | -46 | 33 | -4 | 1 | .
CN(C)C(CNC(=O)c1cccc(OC(F)F)c1)c1ccco1 (stereo unspecified) | . | i | 56 | -18 | -14 | -1 | 5 | -2 | eIF4H inh retest=-12;PABP polyA inh retest=1
CCN(CC)C(=O)Cn1cc(C(=O)C(=O)NCCCN2CCCCC2)c2ccccc21 | 13 | i | 0 | -3 | 0 | -2 | 1 | -1
CN(C)c1ccc(C(=O)OCC(=O)c2ccc[nH]2)cc1 | -62 | . | . | -19 | -7 | 3 | 7 | .
Cc1ccc(NC(=S)NNC(=O)Nc2ccccc2)cc1 | -26 | i | -9 | . | 13 | 5 | 4 | -5
Nc1nnc(SCC(=O)N2CCN(Cc3ccccc3)CC2)s1 | -41 | . | -4 | -7 | 9 | 7 | 2 | 25
O=C(c1cccs1)N1CCN(c2ccc([N+](=O)[O-])cc2F)CC1 | -1 | i | -11 | -9 | -3 | 1 | -1 | 10
Cc1ccccc1CSc1nc2ccccc2c(=O)n1C | . | . | . | -8 | 10 | -8 | -19 | .
COc1ccc(OC)c(/C=C/c2[nH]c(=O)[nH]c(=O)c2[N+](=O)[O-])c1 | 17 | i | -7 | -11 | . | -5 | -10 | 15
CCOc1c(N2CCCCC2)c(=O)c1=O | . | i | -4 | -17 | 5 | 1 | 3 | 3
Cc1ccc(NS(=O)(=O)c2cc(C(=O)N3CCN(C)CC3)ccc2C)cc1 | . | . | 1 | -8 | -11 | -5 | 2 | 5
CCOc1ccc(CN(C)C(C)C(=O)Nc2ccc([N+](=O)[O-])cc2Cl)cc1OC (stereo unspecified) | 10 | i | -6 | . | 5 | -2 | -5 | -1
COc1ccc(CCNC(=O)COc2cccc(-n3cnnn3)c2)cc1 | -10 | . | . | -5 | . | -2 | 1 | .
S=c1[nH]nc(-c2cccc(Br)c2)o1 | -48 | i | 0 | -23 | 14 | 3 | 1 | 9
COc1ccc(N2CCN(C(=O)CNC(=O)c3ccc(C(C)(C)C)cc3)CC2)cc1 | . | i | -5 | . | -9 | 4 | -8 | -1
Nc1ncnc2c1ncn2[C@@H]1O[C@H](CNC(=O)[C@@H]2CCCN2S(=O)(=O)c2ccc(F)cc2)[C@@H](O)[C@H]1O | -12 | . | . | 2 | . | 0 | 5 | .
Cc1cc(OC(C)C(=O)NC(Cc2c[nH]c3ccc(O)cc23)C(=O)O)c2c(C)cc(=O)oc2c1 (stereo unspecified) | . | i | 56 | -12 | 10 | 5 | 2 | 31 | eIF4H inh retest=47;PABP polyA inh retest=25
O=C(NCc1cccnc1)/C(=C\c1ccc(-c2cccc(Cl)c2)o1)S(=O)(=O)c1ccccc1 | . | i | -14 | -5 | 101* | -19 | -36 | -6
CCn1cnc2cc(NC(=O)c3cccs3)ccc21 | -27 | i | 2 | -11 | -12 | 1 | -1 | 4
COc1ccc(-n2nc([N+](=O)[O-])c(=NCCc3ccc(OC)c(OC)c3)n2O)cc1 | . | i | -3 | 8 | -7 | 1 | -14 | 0
O=C1C(Cc2c[nH]c3ccccc23)NC(=S)N1Cc1ccccc1 (stereo unspecified) | 15 | + | 0 | 1 | -3 | 0 | 4 | -2
CCOC(=O)CN1C(=O)CSc2ccccc21 | . | i | -8 | -3 | -9 | -3 | 2 | -2
CCOC(=O)Cc1csc(NC(=O)CN2CCN(c3ccccc3)CC2)n1 | -3 | i | 5 | 2 | -6 | 2 | 2 | 0
Cc1cc(CN(C)C(=O)c2ccc(OC3CCN(CCc4ccccc4)CC3)cc2)on1 | 3 | i | 6 | 8 | 3 | -1 | 3 | 0

5 entries picked at random from those above, as already listed:
SMILES | HIV Env fusion | Rce1 inhib | eIF4H inh | Yeast UUG start | CSC inhib | MT1-MMP act inh | MT1-MMP act inh RFP | PABP polyA inh | others
COc1ccc(N2CCN(C(=O)CNC(=O)c3ccc(C(C)(C)C)cc3)CC2)cc1 | . | i | -5 | . | -9 | 4 | -8 | -1
CCOC(=O)Cc1csc(NC(=O)CN2CCN(c3ccccc3)CC2)n1 | -3 | i | 5 | 2 | -6 | 2 | 2 | 0
S=c1[nH]nc(-c2cccc(Br)c2)o1 | -48 | i | 0 | -23 | 14 | 3 | 1 | 9
COc1ccc(CCNC(=O)COc2cccc(-n3cnnn3)c2)cc1 | -10 | . | . | -5 | . | -2 | 1 | .
CCOC(=O)CN1C(=O)CSc2ccccc21 | . | i | -8 | -3 | -9 | -3 | 2 | -2

Of the compounds above, these have two or more sulfur atoms:
SMILES | HIV Env fusion | Rce1 inhib | eIF4H inh | Yeast UUG start | CSC inhib | MT1-MMP act inh | MT1-MMP act inh RFP | PABP polyA inh | others
N#CCCN(C(=S)Nc1ccc(S(=O)(=O)N2CCOCC2)cc1)c1ccccc1F | -7 | . | . | -18 | . | 3 | 1 | .
Nc1nnc(SCC(=O)N2CCN(Cc3ccccc3)CC2)s1 | -41 | . | -4 | -7 | 9 | 7 | 2 | 25

Additional records:
SMILES | HIV Env fusion | Rce1 inhib | eIF4H inh | Yeast UUG start | CSC inhib | MT1-MMP act inh | MT1-MMP act inh RFP | PABP polyA inh | others
Nc1ncnc(Nc2ccccc2C(F)(F)F)n1 | . | . | 2 | 26 | 3 | 2 | 6 | -2
Cc1ccccc1OCc1nnc(SCc2cc(=O)[nH]c3ccccc23)o1 | 1 | i | -8 | -18 | 1 | -4 | -4 | -2
CC12CC(c3ccccc3O1)C(C(=O)NCc1ccccc1)C(=O)N2 (stereo unspecified) | . | i | 0 | -11 | -3 | 1 | 4 | -3
CCOC(=O)N1CCN(C(=S)Nc2cc(OC)c(OC)cc2C(=O)OC)CC1 | . | i | -3 | -26 | -9 | 1 | 0 | 4
C/C(=N\NC(=O)c1ccc(Cl)cc1)c1ccc(N2CCOCC2)cc1 | 6 | i | -5 | . | 3 | 6 | 7 | 9
O=C(COC(=O)C1C2CC3OC(=O)C1C3C2)Nc1cccc(Cl)c1 (stereo unspecified) | -13 | . | 9 | -11 | -7 | 3 | 5 | -3
O=C(CCN1C(=O)C2C3C=CC(C3)C2C1=O)NCCN1CCCc2ccccc21 (stereo unspecified) | . | i | 36 | -9 | -5 | -1 | 9 | 18
Cc1ccc2c(c1)c(/C=C/c1cc[n+](C)cc1)c(C)n2C | 20 | i | ? | 3 | 7 | -3 | 36 | ?
COc1cccc(NC(=S)N2CCN(C/C=C/c3ccccc3)CC2)c1 | 8 | i | -5 | -24 | -3 | 7 | -4 | -6
Cc1ccc(S(=O)(=O)N(C)C)cc1NC(=S)N1CCN(Cc2ccc3c(c2)OCO3)CC1 | ? | i | -16 | . | 15 | -2 | -20 | -10
O=C(CCc1nc(-c2ccccc2)no1)NC1CCCCCC1 | -25 | . | . | -13 | . | -1 | -1 | .
O=C(CCNC(=O)Cn1ccc2ccccc2c1=O)NCCCN1CCOCC1 | 1 | i | 4 | . | 2 | 2 | 2 | -4
CC(C)c1ccc(NC(=O)[C@@H](NC(=O)N2CC(=O)Nc3ccccc32)C(C)C)cc1 | -63 | i | -15 | 1 | 43 | -1 | -9 | -1
O=C1/C(=C/c2ccccn2)SC(=S)N1c1ccc(O)cc1 | 1 | . | -6 | . | 34 | 3 | -2 | 2
Cc1nc(CN(C)Cc2nc(Cc3cccc(F)c3)no2)cs1 | -5 | i | -3 | -15 | -6 | -2 | -3 | 3
Cc1cc(N2CCOCC2)ccc1/C=C\[N+](=O)[O-] | -287 | i | 6 | . | 50 | -7 | -9 | -5
CCOC(=O)N1CCN(C(=O)C(C)N(c2ccccc2)S(C)(=O)=O)CC1 (stereo unspecified) | 9 | i | 0 | . | -9 | -1 | -1 | -6
